KCNQ2 inh: KCNQ2 channel blockers in CHO-K1 cells – cell-based, FluxOR thallium flux, B-score, primary screen (AID 2156); O88943; 310,000 tested, 1.1% active; 20 min; active compounds read low; only compounds with negative scores are shown here; some inactives read as strong as hits; B-score at 10 µM;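 active = fluorescence ratio B-score at most minus 3 library SDs, with starting brightness B-score within 2 library SDs, cut at about -5.5 in these data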
Target sequence (O88943 whole entry, looked up): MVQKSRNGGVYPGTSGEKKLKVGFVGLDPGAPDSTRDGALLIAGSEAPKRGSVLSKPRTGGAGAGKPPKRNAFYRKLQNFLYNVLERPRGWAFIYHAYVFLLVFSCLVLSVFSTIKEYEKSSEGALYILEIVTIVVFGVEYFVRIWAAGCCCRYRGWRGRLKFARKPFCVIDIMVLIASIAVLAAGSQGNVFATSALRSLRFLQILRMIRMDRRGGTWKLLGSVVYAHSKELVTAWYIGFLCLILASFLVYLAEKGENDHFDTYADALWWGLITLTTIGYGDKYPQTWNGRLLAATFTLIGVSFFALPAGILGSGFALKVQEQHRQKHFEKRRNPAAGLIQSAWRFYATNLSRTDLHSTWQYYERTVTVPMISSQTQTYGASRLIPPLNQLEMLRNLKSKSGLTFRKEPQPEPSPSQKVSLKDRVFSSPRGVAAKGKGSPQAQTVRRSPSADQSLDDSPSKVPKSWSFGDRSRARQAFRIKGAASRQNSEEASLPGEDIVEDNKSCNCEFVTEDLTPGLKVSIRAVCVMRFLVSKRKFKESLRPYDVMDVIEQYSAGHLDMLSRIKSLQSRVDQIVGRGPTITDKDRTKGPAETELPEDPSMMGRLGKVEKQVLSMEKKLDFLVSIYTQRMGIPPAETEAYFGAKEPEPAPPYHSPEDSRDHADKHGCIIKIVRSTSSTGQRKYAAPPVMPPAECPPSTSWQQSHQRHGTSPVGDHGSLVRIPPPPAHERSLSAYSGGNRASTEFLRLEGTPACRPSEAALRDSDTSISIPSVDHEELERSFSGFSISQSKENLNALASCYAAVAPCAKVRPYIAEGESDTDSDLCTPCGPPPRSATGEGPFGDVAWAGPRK
KCNQ2 inh baseline: also measured in KCNQ2 inh; calls as there; B-score; measured here: initial fluorescence intensity artifact check;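 brightness before thallium and not channel activity; 0 = typical well and far values either way flag optical interference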
An asterisk follows results filed as active; i = inactive.

KCNQ2 inh baseline | KCNQ2 inh | Compound
-0.07 | i | C/C(CC(=O)NCCCN1CCOCC1)=N\NC(=O)COc1cccc2ccccc12
-0.59 | i | CCOc1ccc(NC(=O)c2cn(-c3ccc(OCC)cc3)c(=O)c3cc(OC)c(OC)cc23)cc1
0.06 | i | COc1cccc(C2=NC(C)(C)NC(c3ccccc3O)C2)c1 (stereo not given)
0.69 | i | Cc1ccc(CN2C(=O)CCSc3ccc(Cl)cc32)cc1
0.45 | i | CCCCc1ccc(NC(=S)NCc2ccc(OC)cc2)cc1
-1.1 | i | Cc1cc(C(=O)OCC(=O)N2CC(=O)Nc3ccccc32)no1
0.02 | i | Cc1ccc(NC(=O)c2ccco2)c(NC(=O)c2ccc(Cl)cc2)c1
0.79 | i | NC(=O)C1CC(=O)N(c2ccc(OCC(=O)Nc3cccc(C(F)(F)F)c3)cc2)C1 (stereo not given)
-1.63 | i | Cc1ccc2oc(-c3ccc(NC(=O)c4ccncc4)cc3O)nc2c1
-2.61 | i | O=C1CC(C(=O)O)c2ccccc2N1 (stereo not given)
1.84 | i | COc1cccc(C(C(=O)NC2CCCC2)N(CC2CCCO2)C(=O)Cc2cccs2)c1 (stereo not given)
-0.12 | i | Cc1nnsc1C(=O)N/N=C/c1cccc(C(F)(F)F)c1
0.4 | i | COc1ccc(C(=O)NCC(O)CN2CCOCC2)cc1[N+](=O)[O-] (stereo not given)
0.72 | i | COc1ccccc1N1CCN(C(=O)c2cc(C3CC3)on2)CC1
1.01 | i | O=C(N/N=C\c1ccccc1)c1ccccc1-n1cccc1
0.02 | i | CCOC(=O)c1ccc(N2C(=O)c3n[nH]c(C)c3C2c2ccc(OC)c(OC)c2)cc1 (stereo not given)
-0.02 | i | CCc1ccc(NC(=O)CCc2nc3sc4c(c3c(=O)[nH]2)CCCC4)cc1
0.85 | i | COc1ccc(S(=O)(=O)NCc2ccccc2)cc1
-0.22 | i | O=C(c1cc(-c2cccs2)nn1-c1ccccc1)N1CCN(S(=O)(=O)c2ccccc2)CC1
-1.96 | i | O=C(Nc1nnc2n1CCS2)c1ccco1
0.88 | i | COc1cc(OC)cc(C(=O)N[C@H](C(=O)OCC(=O)Nc2ccc(OC)c(OC)c2)C(C)C)c1
-0.75 | i | Cc1ccc(C(=O)NNC(=O)C2CCN(c3nccc(C)n3)CC2)cc1
1.14 | i | CCCCN(CCCC)Cc1ccc(C(=O)NNC(=O)Nc2ccc(F)cc2)o1
-1.54 | i | COc1ccccc1C(=O)NCc1ccco1
1.78 | i | CCC(=O)NNC(=O)Cc1c(C)n(C(=O)c2ccc(Cl)cc2)c2ccc(OC)cc12
-1.12 | i | COc1ccccc1NC(=O)c1cc(Br)ccc1Cl
0.43 | i | CCn1cc(SCC(=O)N2CCOCC2)c2ccccc21
0.8 | i | CC(Oc1ccccc1)C(=O)Nc1nnc(S(=O)(=O)N(C)c2ccccc2)s1 (stereo not given)
-2.64 | i | Cc1cc(NC(=O)C2CCCN(S(=O)(=O)c3c(C)noc3C)C2)n[nH]1 (stereo not given)
0.85 | i | Cc1ccc(NC(=O)c2cccc(S(=O)(=O)N(C)c3ccccc3)c2)cc1S(=O)(=O)N1CCOCC1
-1.25 | i | Cc1ccc(C(=O)Nc2ccccc2C(=O)N2CCCCC2C)cc1 (stereo not given)
3.46 | i | CCOc1ccc(C(=O)NCc2ccco2)cc1
2.59 | i | CCOC(=O)C1=C(N)n2c(s/c(=C\c3ccco3)c2=O)=C(C(=O)OC(C)C)C1c1ccco1 (stereo not given)
1.57 | i | COc1cccc(CN2CCN(C(=O)c3cccc4ccccc34)CC2)c1OC
-0.06 | i | CC(=O)c1cc(C#N)c(SCc2ccccc2)nc1C
0.38 | i | COc1ccc(N(C)S(=O)(=O)c2cccc(C(=O)NC3CCCC3)c2)cc1
0.03 | i | CCCCN1C[C@H](Cc2ccccc2)[C@@H](CC(=O)Nc2ccccc2)C1=O
-0.81 | i | O=C1CCC(/C=C/c2ccccc2)=NN1Cc1ccccc1
2.59 | i | Cc1cc(NC(=O)C2CC2)ccc1NC(=O)c1cccs1
0.95 | i | CC(C)NC(=O)COc1coc(CN2CCN(c3cccc(Cl)c3)CC2)cc1=O
-1.9 | i | O=C(O)c1ccc(/C=C/C(=O)c2ccc3c(c2)OCCCO3)cc1
0.86 | i | COc1ccc(NC(=O)CN2CCN(c3nc(-c4ccc(F)cc4)cs3)CC2)c(OC)c1
2.41 | i | COc1ccc(NC(=O)c2ccccc2N2C(=O)C3C4C=CC(C5CC45)C3C2=O)c(OC)c1 (stereo not given)
-1.27 | i | FC(F)(F)c1cccc(N2CCN(CC3CC4C=CC3C4)CC2)c1 (stereo not given)
-3.24 | i | O=C(CC1Sc2ccccc2NC1=O)NCc1ccccc1 (stereo not given)
0.73 | i | Clc1ccc(SCCCCn2cncn2)cc1
0.95 | i | Cc1ccc(C(=O)N2CCC(C(=O)c3c(C)cc(C)cc3C)CC2)cc1
-3.29 | i | O=C1CCC(C(=O)N2CCc3ccccc3C2)CN1CCCN1CCOCC1 (stereo not given)
-0.07 | i | COc1ccc(OC)c(CCNC(=O)CN2C(=O)CCSc3ccccc32)c1
-0.76 | i | O=[N+]([O-])c1cccc(S(=O)(=O)c2ccc(NCCO)c([N+](=O)[O-])c2)c1

Additional records:
KCNQ2 inh baseline | KCNQ2 inh | Compound
-1.1 | i | COc1cccc2c(=O)n(CC(=O)Nc3ccc(F)cc3)ccc12
-0.21 | i | O=[N+]([O-])c1cc(-n2cnnn2)ccc1N1CCC(Cc2ccccc2)CC1
-0.02 | i | O=C(CSc1ncn[nH]1)NCCc1ccc(Cl)cc1Cl
1.25 | i | Cc1c(NC(=O)c2cc(C(C)C)on2)c(=O)n(-c2ccccc2)n1C
1.36 | i | Cc1ccc(CNc2ccc3nnc(-c4ccccc4)n3n2)cc1
1.38 | i | Cc1nc(SCC(=O)Nc2ccccn2)n[nH]1
1.84 | i | COc1ccc(CCCc2nnc(SCC(=O)Nc3ccccc3F)o2)cc1
-1.31 | i | Cc1cccc(C)c1NC(=O)C1(N2C(=O)CC2c2ccccc2)CCCCC1 (stereo not given)
-0.53 | i | Cc1ccc(N(CC(=O)NN=C2CCN(C)CC2)S(=O)(=O)c2ccc(C)cc2)cc1
0.07 | i | COc1ccc(N2C(=O)CC(Sc3nc(C)cc(C)n3)C2=O)cc1OC (stereo not given)
0.32 | i | O=C(COC(=O)CCc1nc2ccccc2s1)Nc1ncc(Cl)cc1Cl
0.46 | i | CCCCCCCc1c(O)nc(SCCN(C)C)[nH]c1=O
4.29 | i | COC(=O)CCCC1=CC2=CC(=O)C(C)(OC(=O)c3cccs3)C(=O)C2=CO1 (stereo not given)
1.39 | i | O=C(CNC(=O)c1ccccc1F)N/N=C/c1cccnc1
1.53 | i | CN(CCC#N)C(=O)COC(=O)c1cc(Cl)cc(Cl)c1N
0.48 | i | CSCCC(=O)N(C)CC1CCN(CCc2cccc(C(F)(F)F)c2)CC1
-0.1 | i | COc1ccc(C)cc1NC(=O)c1c([N+](=O)[O-])cnn1C
-0.15 | i | COc1ccc(CNC(=O)Cn2nc(C(F)(F)F)cc2C)cc1
2.17 | i | COc1cccc(OCC(=O)NNC(=O)c2cnccn2)c1
-0.26 | i | CCCCn1c(N)c(N(CC(C)C)C(=O)CN(C)S(=O)(=O)c2ccc(C)cc2)c(=O)[nH]c1=O

The last 6 entries of the section before are carried over, then new ones follow:
KCNQ2 inh baseline | KCNQ2 inh | Compound
1.53 | i | CN(CCC#N)C(=O)COC(=O)c1cc(Cl)cc(Cl)c1N
0.48 | i | CSCCC(=O)N(C)CC1CCN(CCc2cccc(C(F)(F)F)c2)CC1
-0.1 | i | COc1ccc(C)cc1NC(=O)c1c([N+](=O)[O-])cnn1C
-0.15 | i | COc1ccc(CNC(=O)Cn2nc(C(F)(F)F)cc2C)cc1
2.17 | i | COc1cccc(OCC(=O)NNC(=O)c2cnccn2)c1
-0.26 | i | CCCCn1c(N)c(N(CC(C)C)C(=O)CN(C)S(=O)(=O)c2ccc(C)cc2)c(=O)[nH]c1=O
-0.16 | i | CNc1nc(-c2c(C)[nH]c3ccc(OC)cc23)cs1
5.73 | i | COc1cc(/C=C2/SC(=S)N(CC3CCCO3)C2=O)ccc1O (stereo not given)
0.21 | i | O=C(NCC1CCCO1)c1ccccc1S(=O)(=O)c1ccc([N+](=O)[O-])cc1 (stereo not given)
0.72 | i | O=C(O)c1cc2cccc(S(=O)(=O)N3CCCCC3)c2cc1O
-1.3 | i | OC1CCCN(C(=S)NCc2ccccc2)C1 (stereo not given)
0.76 | i | O=[N+]([O-])c1ccc(F)c(N=Cc2ccc(Br)s2)c1
-0.99 | i | Cc1cc(CNC(=O)c2cc(COc3ccc(F)c(F)c3)on2)nn1C
2.14 | i | COC(=O)c1ccc(N2C(=O)CC(N3CCC(O)(c4ccc(Br)cc4)CC3)C2=O)cc1 (stereo not given)
-0.47 | i | CCOC(=O)c1sc2nc(CSc3ccccc3)nc(N3CCCN(C)CC3)c2c1C
-1.31 | i | COCCCNC(=S)N/N=C/c1ccc(N(C)C)cc1
-0.89 | i | Cc1cc(NS(C)(=O)=O)c(=O)n(Cc2c(F)cccc2Cl)c1
0.88 | i | Cc1cc(C)c(COCc2cc(/C=N/O)c(C)cc2C)cc1/C=N/O
-0.79 | i | COCCN=C1NN=C(c2ccc(C)c([N+](=O)[O-])c2)CS1
0.14 | i | COc1ccc(C2(O)CC3CCC(C2)N3c2cc(C)nc(-c3ccccc3)n2)cc1 (stereo not given)
0.12 | i | Cn1ccnc1/C(=N\NC(=O)c1ccccc1)c1cccc([N+](=O)[O-])c1
1.27 | i | CC1CCN(C(=O)CCc2ccc(S(=O)(=O)NC(C)C)cc2)CC1
-1.17 | i | C=C(C)CN1CCN(c2c(CCC#N)c(C)c(C#N)c3nc4ccccc4n23)CC1
1.9 | i | NS(=O)(=O)c1ccc(CCNC(=O)c2ccc(C#CC3(O)CCCCC3)cc2)cc1
0.15 | i | COc1ccc(/C=N/NC(=O)c2nc(-c3ccccc3)cc(-c3ccccc3)n2)cc1
-0.57 | i | COc1ccc(C(=O)N/C(=C\c2ccc3c(c2)OCO3)C(=O)N2CCOCC2)cc1

Fetched by compound from above (2):
KCNQ2 inh baseline | KCNQ2 inh | Compound
-0.89 | i | Cc1cc(NS(C)(=O)=O)c(=O)n(Cc2c(F)cccc2Cl)c1
1.9 | i | NS(=O)(=O)c1ccc(CCNC(=O)c2ccc(C#CC3(O)CCCCC3)cc2)cc1

The list goes on:
KCNQ2 inh baseline | KCNQ2 inh | Compound
0.8 | i | CC[N+](C)(C)CCN(Cc1ccc(Cl)cc1)c1ccccn1
0.7 | i | CCS(=O)(=O)N1CCN=C1SCc1cccc(F)c1
2.03 | i | CCN(CC)c1ccc(/C=N/NC(=O)CNC(=O)c2cccs2)cc1
0.54 | i | Cc1cc(C)c(NC(=O)CNC(=O)c2ccc(-n3cncn3)c([N+](=O)[O-])c2)c(C)c1
0.01 | i | Cc1nn(CC(=O)NCCc2ccccc2)c(C)c1[N+](=O)[O-]
0.33 | i | Cc1cc(C(=O)OCC(=O)c2ccc3c(c2)OCCO3)c(C)o1
-1.01 | i | CCCNC(=O)COC(=O)c1ccc(Cl)c(S(=O)(=O)N2CCCC2)c1
1.06 | i | O=C(Nc1csnn1)c1csnn1
1.32 | i | Cc1ccc(SCC(=O)Nc2ccc3c(c2)C(=O)N(C)C3=O)cc1
0.62 | i | CCOC(=O)C1(Cc2ccccc2C)CCCN(C(=O)c2ccc(COC)o2)C1 (stereo not given)
2.45 | i | Cc1ccc(S(=O)(=O)NCCC(=O)Nc2nnc(C3CC3)s2)cc1C
0.01 | i | COc1cccc(CC2(CO)CCCN(Cc3nc(-c4cccs4)oc3C)C2)c1 (stereo not given)
-2.38 | i | Cc1ccc(C)n1-c1cccc(C(=O)Nc2ccccc2)c1
0.59 | i | COc1ccc(Cl)cc1NC(=O)C1CC(c2c(F)cccc2Cl)=NO1 (stereo not given)
0.37 | i | O=C1CC(NNc2nc3ccccc3s2)C(=O)N1c1ccccc1 (stereo not given)
0.85 | i | c1cn(-c2ncnc3sc4c(c23)CCCC4)cn1
-0.65 | i | O=C(O)c1ccc(-n2c(-c3ccc(Br)cc3)n[nH]c2=S)cc1
0.32 | i | Cc1cccc(CSCc2ccc(C(=O)NCC3CCCO3)o2)c1 (stereo not given)
1.81 | i | COc1ccc(NC(=S)Nc2ccc(S(N)(=O)=O)cc2)c(C)c1
0.09 | i | O=C(/C=C\Nc1ccc2c(c1)OCO2)c1ccc2c(c1)OCO2

The list goes on; it opens with the seven that closed the last part.
KCNQ2 inh baseline | KCNQ2 inh | Compound
0.59 | i | COc1ccc(Cl)cc1NC(=O)C1CC(c2c(F)cccc2Cl)=NO1 (stereo not given)
0.37 | i | O=C1CC(NNc2nc3ccccc3s2)C(=O)N1c1ccccc1 (stereo not given)
0.85 | i | c1cn(-c2ncnc3sc4c(c23)CCCC4)cn1
-0.65 | i | O=C(O)c1ccc(-n2c(-c3ccc(Br)cc3)n[nH]c2=S)cc1
0.32 | i | Cc1cccc(CSCc2ccc(C(=O)NCC3CCCO3)o2)c1 (stereo not given)
1.81 | i | COc1ccc(NC(=S)Nc2ccc(S(N)(=O)=O)cc2)c(C)c1
0.09 | i | O=C(/C=C\Nc1ccc2c(c1)OCO2)c1ccc2c(c1)OCO2
1.19 | i | NC(=O)CC[C@@H]1NC(=O)[C@H](CO)NC(=O)c2cc([N+](=O)[O-])cc(I)c2OCC[C@@H](C(N)=O)NC1=O
-1.89 | i | CCN(CC)CC#CCOC(=O)C(O)(c1ccccc1)C1CCCCC1 (stereo not given)
0.83 | i | COc1ccc(C(=O)NC(=S)Nc2ccc3[nH]c(=O)[nH]c3c2)c(OC)c1
-1.89 | i | CC(=O)NCCc1c[nH]c2ccc(O)cc12
0.03 | i | CCOCCCn1c(=NC(=O)c2cccnc2)c(C(=O)OCC)cc2c(=O)n3ccccc3nc21
-2.44 | i | Cc1onc(-c2ccccc2Cl)c1C(=O)Nc1nnc(-c2ccc(Br)cc2)s1
4.32 | i | COc1ccc(Cn2c(O)c(/C=N/NC(=O)c3cccnc3)c3ccccc3c2=O)cc1
-1.92* | -6.3* | COc1ccc(-c2csc(N3CCN(c4cc(C)nc5ccccc45)CC3)n2)cc1OC
-3.71 | i | Cc1cc(C)nc(SCc2csc(-c3ccccc3)n2)n1

From PubChem BioAssay

A portion of the library (hit frequency here may not be typical).
